Beta cell apopt = inhibitors of cytokine-induced beta cell apoptosis, primary screen, luminescence; INS-1E cytokine-induced death, ATP luminescence, 48 h; percent of positive-control rescue, neutral wells zero; protection from apoptosis, % (no concentration beside the values); hit rate 0.8% among 300,000; AID 435005, 2010;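 active = all replicates at 75% or more, or half of them and the mean; inconclusive = half reach 75% but not the mean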;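 also: 0% = cytokine-treated negative control wells and 100% = positive control rescue; higher means more ATP so stronger rescue from cytokine killing; wells of about 40 µL received 100 nL stock; the first replicate is given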
RanGTP-Imp inh = inhibitors of RanGTP-importin-beta interaction, primary screen, biochemical, FRET, CFP-Ran, YFP-importin-beta, homogeneous. inhibition, % (concentration not given with the values). cell-free CFP-Ran/YFP-importin-beta FRET ratio. Ran GTPase (GTP-bound) - importin-beta complex. AID 2216, 2009. hit rate 1.1% among 300,000;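 active = most replicates above 15%; inconclusive = exactly half above 15%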;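 also: 0% = DMSO wells and 100% = Ran loaded with GDP instead of GTP; wells of about 40 µL received 100 nL stock; the first replicate is given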
A1 inh = caspase 3/7 activation in MEF A1-2A-BIM cells, primary screen, A1 inhibitor project, cell-based, luminescence, HTS | Caspase-Glo 3/7 luminescence, 3 h; percent of clofoctol response, vehicle zero | caspase activation, % (concentration not given with the values) | hit rate 0.066% among 330,000 | AID 2462, 2010;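 active = over half of replicate activation scores above 10%, or exactly half above 10 with the replicate mean above 10; inconclusive = replicate mean below 10 yet half the replicates above 10; inactive = over half of replicates below 10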;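 also: wells of about 30 µL received 50 nL stock; many hits fall short of the cut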
Vif A3G = inhibitors of Vif binding to APOBEC3G peptide, primary screen, biochemical, TR-FRET, GST-Vif 1-94, biotin-A3G peptide, dose response retest (AID 1117319). Virion infectivity factor (Human immunodeficiency virus type 1 group M subtype B (isolate …. TR-FRET GST-Vif / biotin-A3G peptide binding; higher % means a stronger effect; test concentration not given here; strong numbers were not always called active. hit rate 0.57% among 260,000. inhibition, %; hits with a dose series show IC50 in µM;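 active = above the screen mean plus three standard deviations and confirmed in dose response; inconclusive = results disagree or hit not tested in dose response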;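 also: Vif residues 1-94 fused to GST binding biotinylated APOBEC3G peptide 110-148; 0% = full assay without inhibitor and 100% = GST in place of GST-Vif; retest series ran down from 100 µM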
Ecoli rRNA inh = reduced GFP signal of wild-type E. coli, primary screen, bacterial rRNA inhibitor project, GFP/RFP fluorescence, OD600, single point; GFP signal change (wild-type ribosome), % (test concentration not listed); E. coli WT GFP vs humanized-ribosome RFP mutants, 24 h; active compounds read low; DMSO median 0, no signal -100; hit rate 1.6% among 350,000;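 active = significant combined selectivity score with lowered wild-type GFP, culture density cut under 30%, mutant RFP and density less affected; inactive = any of these conditions unmet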; also: one replicate is shown; some compounds called inactive have numbers as strong as hits
Calb FLC = C. albicans growth inhibition with fluconazole, primary screen, CaCi-2 strain, Alamar Blue fluorescence | C. albicans CaCi-2 (fluconazole-resistant clinical isolate) + fluconazole, 48 h | growth inhibition, % (test concentration not listed) | hit rate 0.57% among 300,000;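 active = most replicates above 75%; inconclusive = exactly half above 75%; inactive = most below 75%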;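 also: all wells also contain fluconazole at 8 µg/ml as a sub-toxic cotreatment; 0% = median of DMSO wells and 100% = median of geldanamycin control wells; wells of about 8 µL received 7.5 nL stock; the first replicate is given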
T cruzi repl = inhibitors of intracellular T. cruzi growth, primary screen, luminescence, NIH3T3 host cells | inhibition, % (test concentration not listed) | T. cruzi beta-gal in NIH3T3, 90 h | hit rate 1.4% among 300,000;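 active = mean inhibition across valid replicates above about 55%, limit read from the data; inconclusive = mean below that limit but half or more replicates reach it; inactive = mean below it, under half of replicates reach it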;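 also: signal also drops with host cell toxicity which is not excluded here; 0% = plate median of DMSO wells and 100% = zero luminescence signal; higher percent means less beta-gal luminescence so fewer parasites; stock transfer was 50 nL into about 50 µL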
MLL AF4-AF9 inh = inhibitors of AF4 peptide binding to AF9, primary screen, biochemical, AlphaScreen, biotin-AF4 peptide, FLAG-AF9, single point; hit rate 0.47% among 350,000; inhibition, % at 10 µM; Protein AF-9 (Homo sapiens), P42568;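 active = every replicate reaching a set inhibition limit, whatever the replicate mean, cut at about 25% in these data; inconclusive = mean inhibition reaches that limit but some replicates miss it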;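 also: 0% = plate neutral control median and 100% = total signal loss; the record names both 10 and 1 µM as test concentration; the first replicate is given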
Target sequence (P42568 whole entry, looked up): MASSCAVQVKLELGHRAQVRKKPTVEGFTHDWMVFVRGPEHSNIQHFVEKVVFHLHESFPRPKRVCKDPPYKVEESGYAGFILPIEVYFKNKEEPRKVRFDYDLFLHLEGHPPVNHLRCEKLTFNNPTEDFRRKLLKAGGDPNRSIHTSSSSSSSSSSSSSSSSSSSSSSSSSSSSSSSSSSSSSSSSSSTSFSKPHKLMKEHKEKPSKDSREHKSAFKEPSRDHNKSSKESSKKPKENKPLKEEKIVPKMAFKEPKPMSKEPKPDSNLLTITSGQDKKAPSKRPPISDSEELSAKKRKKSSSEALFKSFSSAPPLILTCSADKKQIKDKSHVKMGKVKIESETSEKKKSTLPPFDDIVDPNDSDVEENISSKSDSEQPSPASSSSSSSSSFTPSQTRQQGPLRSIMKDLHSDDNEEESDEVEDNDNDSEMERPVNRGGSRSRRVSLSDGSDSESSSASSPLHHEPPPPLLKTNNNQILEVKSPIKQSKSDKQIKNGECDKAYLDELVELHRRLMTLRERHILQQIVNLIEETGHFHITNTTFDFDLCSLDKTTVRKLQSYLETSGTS
Ecoli rRNA inh OD600 = further read-out of Ecoli rRNA inh, marked with its call; OD600 change, %; measured here: OD600 growth;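 optical density of the mix in the first replicate; 0 = DMSO median and -100 = no signal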
Ecoli rRNA inh RFP = also measured in Ecoli rRNA inh; calls as there; RFP signal change, %; measured here: RFP humanized mutant strains;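 first replicate; 0 = DMSO median and -100 = no signal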
Numbers without * were called inactive; ? = inconclusive; · = not tested or not shown; & = joins results of further samples. Only part of the results is shown; rates above refer to the full screens.

SMILES	Beta cell apopt	RanGTP-Imp inh	A1 inh	Vif A3G	Ecoli rRNA inh	Ecoli rRNA inh OD600	Ecoli rRNA inh RFP	Calb FLC	T cruzi repl	MLL AF4-AF9 inh
CCOc1ccccc1N(CC(=O)N1CCOCC1)S(=O)(=O)c1ccc(SC)cc1	·	-1.0	·	11%	·	·	·	-1	-2	·
C=CCn1c(CC#N)nnc1N1CCOCC1	·	6.9	1.4	6%	·	·	·	-4	1	·
CCSc1oc(-c2ccco2)nc1S(=O)(=O)c1ccccc1	·	4.4	-0.6	-2%	·	·	·	2	4	·
CCc1cc(=O)oc2cc(OC(C)C(=O)O)c(Cl)cc12 (stereo not given)	-4	2.5	-0.6	0%	·	·	·	-8	-1	·
Cc1cc(NC(=O)CSc2nc3c(cc2C#N)CCC3)no1	-5	2.2	0.3	-50%	13	12	-2.7	16	4	1.7
O=C(CN(Cc1ccccc1F)C(=O)c1ccco1)NCc1ccc(F)cc1	1	-2.7	0.4	0%	·	·	·	1	16	·
Cc1ccc(N(CC(=O)NC2CCCC2)C(=O)CCC(=O)Nc2ccccn2)cc1C	-1	5.0	-0.2	·	5	11	-1.3	-3	-3	-2.1
CCC(=O)Nc1ccc(NC(=O)CSc2nnc(-c3ccc(O)cc3)n2CC2CCCO2)cc1 (stereo not given)	-4	·	0.2	6%	16	14	1.3	8	·	-1.2
CCN(CC)C(=O)CSc1nc2cccnc2n1-c1ccccc1OC	-5	-3.8	-0.8	0%	·	·	·	-6	3	·
Cc1ccc(NC(=S)NCc2ccc3c(c2)cc(C)n3C)c(C)c1	-3	7.2	0.5	11%	-20	10	55	-5	15	5.6
O=C(NCCO)N1c2ccccc2Sc2ccccc21	-10	-3.2	0.3	2%	3	8	-0.8	-10	-4	-0.6
O=c1cc(CN2CCN(Cc3ccccc3)CC2)c2ccc(O)cc2o1	·	38*	-0.1	·	2	4	-0.5	-8	56*	3.3
O=C(N/N=C/c1cc(Cl)cc([N+](=O)[O-])c1O)NC12CC3CC(CC(C3)C1)C2	28	-8.7	-0.5	4%	5	4	-4.8	11	23	11
COC(=O)c1nn(-c2ccc(OC)cc2)c(=O)cc1NN	9	·	-0.8	-10%	1	-1	1.3	5	1	2.5
CSc1ccccc1OCc1cc(C(=O)N(C)Cc2cnccn2)no1	-3	6.3	0.0	·	6	9	1.7	2	9	0.3
CN(C)CC(=O)c1c[nH]c2ccccc12	2	-1.5	1.3	-7%	·	·	·	-19	0	·
CCOc1ccc(NC(=O)CCNS(=O)(=O)c2ccc3c(c2)CCC(=O)N3)cc1	3	-0.5	0.7	23%	4	6	-2.3	3	-7	-0.2
Cc1cc(NS(=O)(=O)c2ccc(NC(=S)NC(=O)c3ccc(Br)cc3)cc2)no1	-2	0.4	0.3	1%	-11	-9	-11	-26	-24	0.5
CN1CCC(N(C)C(=O)c2cc(=O)c3ccccc3o2)CC1	-6	-0.7	0.2	·	5	1	1.2	1	13	-1.4
O=C(NC1=NCCS1)C1Cc2ccccc2CN1C(=O)c1ccccc1 (stereo not given)	3	3.2	1.5	-2%	·	·	·	3	-4	·
COC(=O)c1sc2nc3c(cc2c1N)CCCC3	·	-1.8	-7.4	-1%	-12	-7	-4.9	46	-1	-7.1
CN(C)c1ccc(/C=N/NC(=O)c2cccc(C(=O)N/N=C/c3ccc(N(C)C)cc3)n2)cc1	4	4.4	-0.3	7%	-2	1	-2.0	0	-21	-2.3
Cc1ccc(NC(=O)C(=O)NCC2CCCO2)cc1C (stereo not given)	-1	-1.8	-2.3	-5%	8	5	-1.1	5	-5	-0.9
CCn1c(SCC(=O)Nc2cc(C)ccc2C)nc2c(c1=O)SC(C)C2 (stereo not given)	-3	6.7	0.0	-2%	1	13	0.8	7	2	-1.1
CCSc1nc(C)cc(Oc2ccc(=O)n(C)n2)n1	-2	2.4	1.0	7%	·	·	·	3	-15	·

(continued)
SMILES	Beta cell apopt	RanGTP-Imp inh	A1 inh	Vif A3G	Ecoli rRNA inh	Ecoli rRNA inh OD600	Ecoli rRNA inh RFP	Calb FLC	T cruzi repl	MLL AF4-AF9 inh
C=CCn1c(SCCN2CCCC2)nc2c([nH]c3ccccc32)c1=O	16	2.7	-1.8	·	3	6	2.0	?	52	-1.8
COC(=O)c1[nH]c2ccccc2c1NC(=O)CN1CCN(c2cccc(OC)c2)C(C)C1 (stereo not given)	8	0.0	-0.4	27%	·	·	·	5	24	·
Oc1ccccc1C1=Nc2ccccc2N=C(c2ccco2)C1	33	4.8	0.5	3%	·	·	·	1	17	·
Cc1ccc2c(CC(=O)OCc3cc(=O)n4c(n3)sc3ccccc34)coc2c1	-10	-0.5	-0.6	5%	·	·	·	5	-15	·
CC(=O)N1CCN(c2ccccc2NC(=O)COc2ccc(Cl)cc2Cl)CC1	-2	-4.7	-0.2	-2%	·	·	·	10	8	·
O=C(O)CCCC(=O)N1CCCC1	3	0.4	0.3	1%	7	5	-2.2	1	-13	-2.0
O=S(=O)(c1ccc(S(=O)(=O)N2CCC3(CC2)OCCO3)cc1)N1CCCC1	-5	6.4	-0.3	27%	13	9	1.8	4	0	-12
Cc1cc2c(cc(C(=O)OC(C(=O)NCc3ccco3)C(C)C)n2C)o1 (stereo not given)	-2	-0.7	-0.7	-4%	8	-1	-1.2	-22	8	-35
COc1ccc(/C=C2\SC(=N)N(c3ccc(F)cc3)C2=O)cc1OC	11	2.6	-0.2	·	5	4	1.9	0	12	-3.3
N=c1oc2ccccc2cc1C(=O)NCc1ccccc1	-6	2.5	-0.3	·	3	-1	3.7	-8	-13	-8.9
COc1ccc(CNc2cc(C)cc(C)c2)cc1OC	-1	5.0	0.1	·	·	·	·	3	0	·
Cc1ccc(-c2cnc(NCc3cc4c(cc3[N+](=O)[O-])OCO4)n2C)cc1C	0	-0.3	0.8	8%	-19	-43	1.1	-28	33	16
OCC1(Cc2ccccc2Cl)CCN(C/C=C/c2ccccc2)CC1	3	1.1	-0.1	17%	-3	-3	-2.0	5	17	9.6
CC1Oc2ccccc2N(CC(=O)N2CCCC2)C1=O (stereo not given)	-1	-0.4	-0.1	·	11	3	0.9	-9	-12	-5.9
CCOc1ccccc1CNc1ccc(N2CCOCC2)c(C(=O)O)c1	-5	-3.2	-0.6	31%	12	2	-3.0	49	-2	7.0
Nc1ccc(Cl)cc1C(=O)OCC(=O)NC1CCS(=O)(=O)C1 (stereo not given)	4	4.5	0.4	7%	10	6	0.7	-2	-15	-4.3
COc1ccc2[nH]c(=O)c(CN(C)C(=O)c3cccs3)cc2c1	-4	2.7	0.0	14%	8	4	4.5	-3	-31	-1.5
COc1ccc2c(c1)C(SCC(=O)NCCc1ccccc1)CC(C)(C)O2 (stereo not given)	-8	-3.4	-0.1	7%	-22	-41	-5.0	2	7	0.6
CCSc1nnc(Nc2ccccc2)s1	0	1.9	-1.9	-1%	·	·	·	22	21	·
Cc1ccc(OCC(=O)N2CCC(Cc3ccccc3)CC2)c([N+](=O)[O-])n1	-1	·	0.2	-3%	-12	-23	0.8	·	·	0.8
Cc1ccc2nc(N/N=C/c3ccccc3C#N)nc(-c3ccccc3)c2c1	5	8.7	-0.7	-3%	-23	-33	-5.6	0	18	16
CCOC(=O)C1=C(C)NC2=C(C(=O)CCC2)C1c1ccc(O)c(OCC)c1 (stereo not given)	-3	3.1	1.3	·	·	·	·	0	8	·
O=C(CC1(C(F)(F)F)OCCO1)Nc1ccc2c(c1)OCO2	-3	?	-0.6	?	·	·	·	-8	-5	·
CS(=O)(=O)c1ccc2nc(NC(=O)CS(=O)(=O)Cc3ccccc3)sc2c1	-3	-0.7	-1.3	1%	4	15	2.2	-11	-5	-0.7
COc1ccc2nc(SCC(=O)NC3CCCC3)c(C)cc2c1	3	-0.4	1.4	·	6	13	0.8	-20	14	2.8

Continuation:
SMILES	Beta cell apopt	RanGTP-Imp inh	A1 inh	Vif A3G	Ecoli rRNA inh	Ecoli rRNA inh OD600	Ecoli rRNA inh RFP	Calb FLC	T cruzi repl	MLL AF4-AF9 inh
Cc1ccc(N=Nc2c(N)nn(-c3ccccc3)c2N)cc1	-5	-3.4	-0.7	3%	-11	-10	-4.6	?	-27	-2.9
Cc1cnc(Sc2ncccc2[N+](=O)[O-])nc1	-3	1.0	0.4	12%	·	·	·	7	-9	·
CCC(=O)Nc1nc(-c2ccccc2)nc(SC)c1C(C)=O	1	3.4	0.1	18%	1	6	1.3	12	9	-2.6
Cc1ccc(S(=O)(=O)NC(=O)N(C)C2CCCCC2)cc1	-11	7.0	0.0	-4%	16	15	0.1	3	-11	-1.4
Cc1ccc(CSc2nnc(NC(=O)C3COc4ccccc4O3)s2)cc1 (stereo not given)	-5	-3.3	-1.3	1%	·	·	·	-5	11	·
CCCc1nnc(NC(=O)c2cc3ccccc3oc2=O)s1	5	3.8	-5.4	1%	·	·	·	6	-3	·
CC1(C)CC(=O)C(C=Nc2ccccc2)=C(O)C1	-5	-4.4	-0.5	23%	·	·	·	0	-7	·
CC1CCc2c(nc3ncnn3c2N2CC(C)OC(C)C2)C1 (stereo not given)	5	-1.6	0.1	-7%	·	·	·	-4	6	·
CCCN(CCC)Cc1c(C(=O)N/N=C/C(C)=C\c2ccco2)nnn1-c1nonc1N	21	-0.7	0.0	·	1	9	2.7	1	20	7.2
Cn1c(CCNC(=O)c2ccco2)nc2cc(NC(=O)C3CCCCC3)ccc21	-1	5.7	0.0	12%	·	·	·	-3	4	·
COc1ccc(S(=O)(=O)N2CCCCC2)cc1NC(=O)CCNC(=O)c1ccc(Br)cc1	10	-1.1	-1.1	4%	15	6	3.4	-7	10	-1.2
CCC(=O)Nc1ccc(NC(=O)c2ccco2)cc1	2	-1.6	-0.6	14%	6	10	-0.9	5	-7	1.3
C=CCn1c(=O)c2ccccc2n2c(SCC(=O)/C(C#N)=C(\C)N)nnc12	-6	-2.1	-1.0	7%&5%	5	11	-2.2	-13	7	-2.9
O=C(O/N=C1\CCS(=O)(=O)c2sccc21)C1CC1	-7	101*	-0.4	-9%	2	7	6.6	24	-8	-4.0
COc1ccc(C(=O)N(CCc2ccccc2)Cc2ccccc2)cc1S(=O)(=O)N1CCOCC1	0	·	1.3	-5%	-17	-27	5.8	-1	10	7.2
COc1ccccc1C(=O)NCC(=O)OCC(=O)c1ccc(Cl)s1	-4	1.5	1.1	-9%	8	11	0.5	4	1	-25
O=C(NC(Cc1ccccc1)C(=O)O)/C(=C\c1ccc(F)cc1)NC(=O)c1ccccc1 (stereo not given)	-8	3.9	-0.2	3%	·	·	·	-6	-12	·
C=Cc1cccc(NC(=O)c2ccc(NC(=O)c3ccco3)cc2)c1	10	-2.1	0.2	·	-10	-37	-7.9	2	-12	-7.5

Compound activity: PubChem, several laboratories
